Compound activity from PubChem BioAssay.
TRPML1 blocker: inhibitors of human TRPML1 channel; Q9GZU1; TRPML1-inducible cells, Ca2+ dye fluorescence, FDSS; active compounds read low; inhibition of EC80 agonist-evoked calcium signal; activity change, negative = inhibition, % (test concentration not listed); actives 0.02% (n = 390,000); in the data active means activity change below about -50%; inconclusive means about -30% to -50%; inactive means above about -30%;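 also: stimulus is agonist 54-4 at its EC80 concentration; % is scaled to controls: 0 for no effect and ±100 for the full control effect; compound concentration not given in the record; the text of the record puts the active cut at -80%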
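TRPML1-DL cells, Tet-induced overnight (~16 h, 37 °C) at 1,500 cells/well, were loaded with Ca8 no-wash dye plus quencher for 45-90 min at room temperature. Compounds were pinned during FDSS kinetic reading; agonist 54-4 at EC80 (4 uM final) then added.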
D2 potentiator: human D2 receptor positive allosteric modulation; P14416; DiscoveRx D2 beta-arrestin cells, luminescence, 90 min; 100% = 57 uM dopamine signal; potentiation, % (concentration not given with the values); actives 0.23% (n = 360,000); active = potentiation of 50% or more; inconclusive = 30% to 50%; inactive = 30% or less;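 also: compound concentration not given in the record; tested on top of an EC20 dose of dopamine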
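PathHunter beta-arrestin assay in DiscoveRx D2 cells. Compounds were added with an EC20 of dopamine (50 nM final) for 90 min at 37 deg C. Luminescence was read 1 h after detection reagent, with 57 uM dopamine as the EC100 control.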
Six1-Eya2 blk: blocks human Six1 binding to Eya2; AlphaScreen GST-Six1/His-Eya2 binding, biochemical; active compounds read low; control for the full effect not named in the record; activity change, % (concentration not given with the values); Q15475+O00167; actives 0.56% (n = 360,000); in the data active = activity change below about -65%; inconclusive = about -30% to -65%; inactive = above about -30%; also: % is scaled to controls: 0 for no effect and ±100 for the full control effect
Target sequence (O00167 whole entry, looked up): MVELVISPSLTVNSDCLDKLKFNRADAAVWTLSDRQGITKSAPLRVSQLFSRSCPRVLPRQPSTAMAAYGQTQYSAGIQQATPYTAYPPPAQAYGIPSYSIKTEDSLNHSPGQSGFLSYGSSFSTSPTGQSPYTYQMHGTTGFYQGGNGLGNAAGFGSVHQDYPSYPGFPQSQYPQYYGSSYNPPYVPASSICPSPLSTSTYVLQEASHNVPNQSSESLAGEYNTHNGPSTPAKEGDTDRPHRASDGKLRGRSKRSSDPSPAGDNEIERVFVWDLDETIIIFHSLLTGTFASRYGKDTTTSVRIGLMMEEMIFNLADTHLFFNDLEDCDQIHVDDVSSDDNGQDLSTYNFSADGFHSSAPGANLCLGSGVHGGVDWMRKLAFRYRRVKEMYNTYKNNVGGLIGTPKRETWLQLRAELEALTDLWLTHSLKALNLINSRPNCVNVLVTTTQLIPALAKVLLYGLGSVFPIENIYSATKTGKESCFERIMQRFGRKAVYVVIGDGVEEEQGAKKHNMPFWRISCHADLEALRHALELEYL
Target sequence (Q15475 whole entry, looked up): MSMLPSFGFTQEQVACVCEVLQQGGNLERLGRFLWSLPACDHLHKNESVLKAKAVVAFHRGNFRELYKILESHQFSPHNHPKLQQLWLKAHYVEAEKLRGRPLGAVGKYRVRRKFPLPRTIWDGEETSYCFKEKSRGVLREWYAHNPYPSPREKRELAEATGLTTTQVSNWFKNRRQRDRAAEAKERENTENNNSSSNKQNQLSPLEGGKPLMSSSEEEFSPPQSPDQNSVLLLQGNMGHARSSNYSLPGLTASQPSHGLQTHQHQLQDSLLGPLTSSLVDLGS
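Compounds are tested against tagged Six1 and Eya2 proteins bridged by glutathione donor and nickel acceptor beads; after a one-hour incubation at 37 °C without light, AlphaScreen emission is recorded.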
TRPML1 ag: agonists of human TRPML1 channel; Q9GZU1; TRPML1-expressing cells, Ca2+ dye fluorescence, FDSS; host cell line not named in the record; reference of the full effect not given here; activation, % (no concentration beside the values); actives 0.12% (n = 410,000); in the data active = activation above about 50%; inconclusive = about 30% to 50%; inactive = below about 30%; also: 0% is about no effect; the text of the record puts the active cut at 80%
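Tetracycline-induced TRPML1-DL cells are seeded and incubated overnight before loading with a no-wash Ca2+ dye and quencher. Agonist activity is taken from the 110 s fluorescence read following compound pin-transfer on an FDSS, before EC80 54-4 challenge.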
PINK1 modulator: changes PINK1 expression; PINK1 immunofluorescence, high-content cytometry, 24 h; Potency, µM (titrated, usually from 76.6 µM), for the others: at the top dose activation (PINK1 increase), actives largely listed as activators; actives 0.2% (n = 410,000); active = well fitted activation curve with a large enough effect; inconclusive = small, poorly fitted or top-dose-only effect; inactive = flat fitted curve, though single readings scatter; cell line not stated here;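 also: potency is read from the fitted curve at half-maximal effect; % of control where 0% means no effect; nearly all actives have a fitted effect of over 65% in size; a mitochondrial uncoupler was the plate control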
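A stable cell line was treated with compounds at 5 concentrations for 24 hours, with CCCP as control. PINK1 levels and mitochondrial localization were measured by immunofluorescence with mitochondrial, cell and nuclear markers after fixation, read by laser-scanning cytometry.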
D2 ag: activates the human D2 dopamine receptor. AID 624465. DiscoveRx PathHunter D2 beta-arrestin, luminescence, 90 min; 100% = 57 uM dopamine signal. actives 0.084% (n = 360,000). P14416. activation, % (test concentration not listed); in the data active = activation above about 40%; inconclusive = about 15% to 40%; inactive = below about 15%; also: compound concentration not given in the record; the text of the record calls up to 30% inactive
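Agonist mode: compounds alone added to overnight-plated D2 PathHunter cells for 90 min at 37 C, with 57 uM final dopamine (EC100) defining full response. Beta-arrestin recruitment detected by chemiluminescent reagent, read after 1 h at ambient temperature.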
* marks the source's active call; other numbers are inactive results; ? = inconclusive; . = no result given; [ ] = another dose, or the depositor's remark.

Compound	TRPML1 blocker	D2 potentiator	Six1-Eya2 blk	TRPML1 ag	PINK1 modulator	D2 ag
COc1ccc(CN2CCC[C@]3(N[C@H](c4ccccc4)[C@@H]4C(=O)N(Cc5ccccc5)C(=O)[C@@H]43)C2=O)cc1	-8	-5	-4	-0.4	1.0%	-9.0
FC(F)(F)c1nc2cc3nc4ccccc4[nH]c3cc2n1	-14	-1	?	2.4	2.7%	2.4
C[C@@]12C(=O)Nc3cc(Cl)ccc3C(=O)N1[C@H]1c3cc(Cl)ccc3OC[C@@H]1[C@@H]2c1ccccc1	4	-14	-3	0.1	6.3%	-1.2
O=C(NC1CCCCC1)N(c1ccccc1)c1nnc(-c2cccc([N+](=O)[O-])c2)s1	5	-12	-15	0.9	-1.4%	-7.0
Cc1ccc(C)c(NC(=O)CN(C)C(=O)c2ccc3[nH]c4c(c3c2)CC(C)CC4)c1 (configuration not stated)	-8	10	-29	0.9	1.4%	-4.0
CSc1ccc(C(=O)N2CCC(CCC(=O)NCc3ccc(F)cc3)CC2)cc1	11	-6	0	-1.1	-1.0%	-4.2
CN(C)/C=C/c1onc(-c2c(Cl)cccc2Cl)c1C#N	10	2	0	1.0	3.0%	-4.5
O=S(=O)(c1ccc(SCCOc2cccc(Br)c2)nc1)N1CCCC1	18	-29	25	1.5	1.0%	-2.0
O=C(N/N=C/c1ccco1)c1cc(-c2ccc(Br)s2)[nH]n1	2	-2	-22	0.8	10%	7.9
O=C(NCc1ccc(Cl)cc1)c1ccc(-c2ccccc2C(F)(F)F)o1	19	-31	-13	2.5	?	-2.6
Cc1cccc(C)c1OCC(=O)NCc1nnc(SCC(=O)NC2CCCCC2C)n1C (configuration not stated)	-6	5	1	2.7	0.7%[38.3 µM]	-2.7
Nc1sc(-c2ccccc2)c(Cc2ccccc2)c1C(=O)O	-10	-4	-1	-0.2	2.9%	-0.3
O=C(COc1ccc2ccccc2c1Br)N1CCOCC1	10	-9	3	-0.3	2.4%	-2.3
CCOC(=O)c1c(-c2ccc(OC)cc2)csc1/N=C/N(C)C	3	-17	12	0.2	-2.3%	-5.9
CCCCc1nnc(SCC(=O)Nc2nccs2)n1CC	28	-1	1	-0.1	-0.7%	1.5
CC1CC(=O)Nc2ccccc2N1C(=O)CSc1ncnc2sccc12 (configuration not stated)	-5	-4	5	0.3	0.6%	0.9
Cc1ccc(S(=O)(=O)Nc2ccc(S(=O)(=O)NC(C)(C)C)cc2)cc1	5	-10	6	0.3	-1.3%	2.4
O=C(Cn1cnc2c(nnn2Cc2ccccc2F)c1=O)OCc1ccccc1	5	-5	26	3.6	1.6%	-3.8
CC(=O)Nc1ccc2c(c1)nc1n2CCN(C2CCCCC2)C1	-19	-2	11	0.6	-2.1%	-1.3
CCCCOc1ccc(C(=O)N(CC)CC(=O)NCc2cccs2)cc1	-3	-11	14	0.0	12%	-1.3
CCOCCCNC(=S)NNC(=O)CCn1nc(C)c(Br)c1C	-23	-28	25	1.7	1.3%[38.3 µM]	-12
COc1ccc(C(=O)N2CCN(C(=O)CC(C)C)CC2)cc1OC	2	-1	7	-0.6	0.0%	-4.4
COc1ccc(-c2cc3ccc(O)c(CN4CCOCC4)c3oc2=O)cc1OC	-25	.	.	13	1.1%	.
Cc1ccccc1NCC(=O)N/N=C/c1c(C)c(C(=O)c2ccc(Cl)cc2)n2ccccc12	28	-16	-4	3.6	?	-1.2
O=C(NNC(=O)c1cccc2ccccc12)c1ccccc1O	10	-33	-29	1.0	-1.2%	4.3
O=C1NCCCC1C(=O)N1CCN(C(=O)c2ccco2)CC1 (configuration not stated)	-6	0	7	3.9	-1.0%[38.3 µM]	-2.0
Cc1ccc(C(=O)COC(=O)C2CC(=O)N(c3nc(-c4ccccc4)cs3)C2)cc1 (configuration not stated)	17	-4	0	-0.1	-0.1%	-2.6
Cc1cn(C2CCCCC2)c(=O)[nH]c1=O	-19	8	10	-0.1	-1.2%	-0.1
CCOC(=O)c1sc2nc(NC(=O)COc3ccccc3)sc2c1C	-3	-4	-3	0.9	0.4%	0.1
COc1cc(/C=C2/CCc3ccccc3C2=O)cc(OC)c1OC	21	24	12	3.2	-4.3%	-4.2
CC(OC(=O)C1CC1C)C(=O)Nc1ncc(Cl)cc1Cl (configuration not stated)	0	-4	10	-0.3	4.5%	1.2
COc1cc(-c2noc(-c3ccco3)n2)cc(OC)c1OC	-4	5	-1	-1.3	0.6%	-1.3
Cc1c(-c2ccc(Br)cc2)nc2ccccn12	3	-9	0	2.6	3.9%	-4.2
COc1ccc(CNC(=O)C(=O)NCC(c2cccnc2)N2CCN(c3ccccc3)CC2)cc1 (configuration not stated)	13	.	.	2.4	-0.1%	.
Cc1ccc(NS(=O)(=O)c2ccc(F)cc2)nc1	.	12	-2	.	1.1%	2.4
COc1ccc(CCC(=O)NCc2ccc3c(c2)OCO3)cc1	3	-6	11	0.9	-3.8%	-5.5
Oc1ccccc1C1OCC2(CO1)COC(c1ccccc1O)OC2 (configuration not stated)	2	-2	31	-0.2	1.2%	-2.0
Cc1nn2c(=O)cc(COC(=O)c3cccc(NC(=O)c4ccc(F)cc4)c3)nc2s1	-15	.	.	2.1	7.2%	.
CC1(C)SC2C(C(=O)O)N=C(Cc3ccccc3)N2C1C(=O)O (configuration not stated)	-2	-10	-81*	-0.7	2.3%	-2.3
Cc1ccccc1C(OCC(O)CN1CCN(CCO)CC1)c1ccccc1 (configuration not stated)	-6	-11	-15	1.7	-3.2%	0.0
COc1ccc(CCN2C(=O)COc3ccccc3C2C(=O)Nc2c(C)cccc2C)cc1OC (configuration not stated)	.	.	-8	-1.0	2.3%	.
Cc1ccc2oc(-c3ccco3)cc(=O)c2c1	7	-3	-3	3.4	0.1%	-5.4
CC[C@@]1(C(=O)OC)N[C@H](CN(C)C(=O)Nc2ccc(C(F)(F)F)cc2)[C@@H]2C(=O)N(C)C(=O)[C@@H]21	-10	2	4	-0.3	0.9%	1.0
Nc1nc2ccccc2n1/N=C/c1ccc([N+](=O)[O-])s1	5	10	9	-0.2	-2.4%	-0.3
Cc1ccc(S(=O)(=O)N2CCCC2C(=O)OCc2nc3sc(C)c(C)c3c(=O)[nH]2)cc1 (configuration not stated)	-12	21	-9	2.3	0.0%	-1.0
CC(=NNC(=O)CCC(=O)Nc1ccccc1Cl)c1ccco1	-8	-3	9	-0.2	-2.0%	-2.7
COc1cc(OC)c2c(C)c(CC(=O)N3CCCCC3)c(=O)oc2c1	-6	.	.	-0.1	-0.4%	.
Cc1cccc2c1NC(=O)C21OCC(CO)([N+](=O)[O-])CO1 (configuration not stated)	-18	-1	11	0.5	1.5%	-1.0
CCOc1ccc(N2CSC(=S)N(c3ccc(OCC)cc3)C2)cc1	-10	-19	-7	-0.6	1.4%	-4.5
COc1cccc(C(=O)NCCS(=O)(=O)NC(C)CCc2ccccc2)c1 (configuration not stated)	-2	-20	6	1.3	1.8%	-0.9
Cc1cccc(S(=O)(=O)c2c(N)n(-c3ccccc3)c3nc4ccccc4nc23)c1	12	-22	0	-0.4	0.9%	-1.4
Cc1cc(C(=O)NC2CCCC2)c2ccccc2n1	-5	-8	7	0.3	6.4%	1.5
Cc1ccc(Cl)cc1N1CCN(CC(=O)NC2CCCc3ccccc32)CC1 (configuration not stated)	-12	-31	-14	2.0	-3.3%	-2.5
O=C(CN1CCCCC1)Nc1ccc(N2CCCCCC2)cc1	8	-6	?	0.1	2.9%	6.7
Cc1cccc(N2CCN(C(=O)CNC(=O)c3cccc([N+](=O)[O-])c3)CC2)c1C	13	3	-1	-0.6	-0.5%	-1.2
CCCNC(=O)NC(=O)COc1ccc2oc3ccccc3c2c1	21	-1	13	2.3	1.3%	0.8
COc1ccc(Cl)cc1N(CC(=O)NC1CC1)S(=O)(=O)c1ccc(C)c([N+](=O)[O-])c1	-4	-6	6	-0.1	1.7%	-4.1
Cc1noc(C)c1S(=O)(=O)N(C)C[C@@H]1OCc2cnnn2CCCC(=O)N([C@@H](C)CO)C[C@H]1C	-4	-3	14	-0.3	-0.9%	-0.2
CC1CCN(C(=O)CN2CCSc3ccccc32)CC1	-19	.	.	0.4	2.5%	.
O=C(Nc1ccc2oc(-c3ccc4ccccc4c3)nc2c1)c1cc(Br)ccc1Cl	3	.	.	2.1	0.7%	.

Overlap with the part before: 5 compounds; new compounds follow.
Compound	TRPML1 blocker	D2 potentiator	Six1-Eya2 blk	TRPML1 ag	PINK1 modulator	D2 ag
CCCNC(=O)NC(=O)COc1ccc2oc3ccccc3c2c1	21	-1	13	2.3	1.3%	0.8
COc1ccc(Cl)cc1N(CC(=O)NC1CC1)S(=O)(=O)c1ccc(C)c([N+](=O)[O-])c1	-4	-6	6	-0.1	1.7%	-4.1
Cc1noc(C)c1S(=O)(=O)N(C)C[C@@H]1OCc2cnnn2CCCC(=O)N([C@@H](C)CO)C[C@H]1C	-4	-3	14	-0.3	-0.9%	-0.2
CC1CCN(C(=O)CN2CCSc3ccccc32)CC1	-19	.	.	0.4	2.5%	.
O=C(Nc1ccc2oc(-c3ccc4ccccc4c3)nc2c1)c1cc(Br)ccc1Cl	3	.	.	2.1	0.7%	.
COC(=O)c1scc(C#N)c1N/N=C(\C#N)S(=O)(=O)c1ccc(Cl)cc1	17	-10	-11	-0.2	?	-2.1
Cc1nc(P(=O)(c2ccccc2)c2ccccc2)c(N2CCOCC2)o1	-1	-1	-13	0.8	-0.8%	-3.0
Cc1noc(C)c1C(=O)NCc1ccccc1	-2	-22	6	-0.5	-2.7%	0.7
CCc1ccc(NC(=O)c2[nH]c(C)c(C(C)=O)c2C)cc1	-19	-14	-13	-0.6	2.6%	0.1
CCN1CCN(C(=O)C2c3cc(OC)c(OC)cc3C(=O)N3CCc4ccccc4C23)CC1 (configuration not stated)	13	4	3	0.3	-0.8%	-1.3
COc1cc(-c2nc(Cc3ccccc3Cl)no2)cc(OC)c1OC	-9	-8	14	1.5	17%[38.3 µM]	0.0
O=C1NN(c2ccc(F)c(Cl)c2)C(=O)/C1=C\c1cccc(OC(=O)c2cccs2)c1	15	4	-13	-0.2	-0.9%	-2.4
Cc1onc(-c2ccccc2)c1C(=O)OCC(=O)Nc1ccc(C#N)cc1	7	0	-1	2.6	-0.3%	2.0
O=C1CN(C(=O)COC(=O)CNC(=O)c2ccc(Br)o2)c2ccccc2N1	-7	-10	2	0.2	-0.8%	-1.2
O=C(N/N=C/c1ccc([N+](=O)[O-])s1)c1ccccc1Br	-7	25	4	0.9	.	2.7
O=C(NCC1CCCN1S(=O)(=O)c1cccs1)C(=O)Nc1ccccc1F (configuration not stated)	7	-21	5	-0.9	0.0%	-0.4
